VDR inh = vitamin D3 receptor (human) inhibition. Potency, µM, for the others: max response, negative = inhibition, most hits filed as inhibitors. VDR-SRC2-3 peptide fluorescence polarization, 2 h. AID 504847. P11473. actives 0.93% (n = 400,000); active = well fitted inhibition curve with a large enough effect; inconclusive = small, poorly fitted or top-dose-only effect, or another doubt; inactive = no such curve, though single readings can be large or run the other way; note: series mostly up to about 120 µM
Target sequence (P11473 whole entry, looked up): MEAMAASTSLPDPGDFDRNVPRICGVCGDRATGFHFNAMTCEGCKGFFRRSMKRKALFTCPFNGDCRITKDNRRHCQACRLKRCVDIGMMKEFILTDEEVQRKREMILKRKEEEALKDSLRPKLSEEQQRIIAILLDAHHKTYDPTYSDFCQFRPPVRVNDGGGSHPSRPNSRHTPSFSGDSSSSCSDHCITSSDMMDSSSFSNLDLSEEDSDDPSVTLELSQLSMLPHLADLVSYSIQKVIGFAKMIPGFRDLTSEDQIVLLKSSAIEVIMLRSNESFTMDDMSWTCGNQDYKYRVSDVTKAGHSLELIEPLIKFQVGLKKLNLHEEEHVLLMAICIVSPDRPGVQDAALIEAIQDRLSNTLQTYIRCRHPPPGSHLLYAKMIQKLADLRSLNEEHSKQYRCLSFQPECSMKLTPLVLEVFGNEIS
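Fluorescence polarization assay of small-molecule disruption of VDR binding to coregulator peptide SRC2-3. Compounds and controls pin-transferred, then read after 2 h incubation at ambient room temperature.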
The depositor's hits bear a star; ? = inconclusive. % is set by controls: 0 for no effect and ±100 for the full control effect; potency is the fitted concentration of half-maximal effect. Only part of the results is shown; rates above refer to the full screens.

| entry | VDR inh | canonical_smiles |
| --- | --- | --- |
| 1 | ? | Clc1ccccc1-c1nc2nc3ccccc3nc2n1-c1ccc2c(c1)OCO2 |
| 2 | 7.4% | CC(C)(C)C(=O)Nc1cccc(C(=O)OCc2cc(=O)n3nc(C4CCCCC4)sc3n2)c1 |
| 3 | -1.9% | COc1ccc2[nH]c(=O)c(CNc3cccc(C)c3)cc2c1 |
| 4 | -12.6% | O=C(O)CSc1nc2ccccc2nc1Cc1ccccc1F |
| 5 | -8.3% | COc1ccc(S(=O)(=O)N2CCN(C(=O)CN3C(=O)NC(C)(c4ccc5ccccc5c4)C3=O)CC2)cc1 (stereo not given) |
| 6 | -3.6% | O=C(Nc1cccc(NC(=O)C2CC3CCCC(C2)C3=O)n1)C1CC2CCCC(C1)C2=O (stereo not given) |
| 7 | -7.2% | COc1cccc(NC(=O)Cc2cccs2)c1 |
| 8 | 23.2% | CSCCC(C(=O)O)N1C(=O)c2ccc(C(=O)O)cc2C1=O (stereo not given) |
| 9 | -14.8% | CC[C@H](C)[C@H](NC(=O)[C@H](CO)NC(=O)[C@H](CC(C)C)NC(=O)[C@@H]1CCCN1C(=O)[C@@H]1CCCN1C(=O)[C@H](CC(=O)O)NC(=O)[C@@H](N)CC(=O)O)C(=O)N[C@@H](CC(=O)O)C(=O)N[C@@H](CC(C)C)C(=O)N[C@H](C(=O)N[C@@H](Cc1ccccc1)C(=O)N[C@@H](Cc1cnc[nH]1)C(=O)N[C@@H](CC(C)C)C(=O)N[C@@H](CC(C)C)C(=O)N[C@@H](CCCNC(=N)N)C(=O)N[C@H](C(=O)N[C@@H](CC(C)C)C(=O)N[C@@H](CC(C)C)C(=O)N[C@@H](CCC(=O)O)C(=O)N[C@@H](CC(C)C)C(=O)N[C@@H](C)C(=O)N[C@@H](CCCNC(=N)N)C(=O)N[C@H](C(=O)N[C@@H](CCC(N)=O)C(=O)N[C@@H](CO)C(=O)N[C@@H](CCC(N)=O)C(=O)N[C@@H](CCCNC(=N)N)C(=O)N[C@@H](CCC(=O)O)C(=O)N[C@@H](CCCNC(=N)N)C(=O)N[C@@H](C)C(=O)N[C@@H](CCC(=O)O)C(=O)N[C@@H](CCC(N)=O)C(=O)N[C@@H](CC(N)=O)C(=O)N[C@@H](CCCNC(=N)N)C(=O)N[C@H](C(=O)N[C@H](C(=O)N[C@@H](Cc1ccccc1)C(=O)N[C@@H](CC(=O)O)C(=O)N[C@@H](CO)C(=O)N[C@H](C(N)=O)C(C)C)[C@@H](C)CC)[C@@H](C)CC)[C@@H](C)O)[C@@H](C)O)[C@@H](C)O |
| 10 | -14.4% | O=C(CNC(=O)c1cccc(F)c1)N/N=C/c1cccnc1 |
| 11 | 5.3% | COc1ccc(C2(C)NC(=O)N(Cc3cc(Cl)cc4c3OCOC4)C2=O)cc1OC (stereo not given) |
| 12 | -1.7% | COc1ccc(CNC(=O)[C@@H](C)NC(=O)[C@@H]2Cc3ccccc3CN2)cc1 |
| 13 | -6.2% | COc1cc(NC(=O)C/C(C)=N/NC(=O)Cc2ccccc2)c(OC)cc1Cl |
| 14 | ? | O=C1Nc2ccccc2C1=Nc1ccc(Cl)cc1 |
| 15 | ? | O=C(c1ccncc1)N1CCC[C@@]2(CCN(C(c3ccccc3)c3ccccc3)C2)C1 |
| 16 | 5.9% | COC(=O)c1ccc(OC)c(NS(=O)(=O)c2ccc(-n3cnnn3)cc2)c1 |
| 17 | -5.7% | CC(C)CN(C(=O)COC(=O)c1cc2ccccc2cc1O)c1c(N)n(Cc2ccccc2)c(=O)[nH]c1=O |
| 18 | 13.6% | CCCCCN1C=CC=C/C1=C\C=C(C#N)C#N |
| 19 | 7.5% | O=C(CNC(=O)c1ccc(Cl)cc1)NC(CO)c1ccccc1 (stereo not given) |
| 20 | -9.4% | NCCNC(=O)Cn1c(=O)c2c3c(sc2n(Cc2ccccc2)c1=O)CCCC3 |
| 21 | 6.3% | COC(=O)C1=COC(C)C2CN3CCc4c([nH]c5ccccc45)C3CC12 (stereo not given) |
| 22 | 4.8% | CCc1ccccc1NC(=O)c1ccc2c(c1)N(Cc1cccc(Cl)c1)C(=O)c1ccccc1S2(=O)=O |
| 23 | 6.2% | C/C(=N\OCC(=O)OCC(=O)Nc1cc(S(C)(=O)=O)ccc1Cl)c1ccc2c(c1)OCO2 |
| 24 | -6.8% | CN(C)C1=NCCN1CC1CCCCC1 |
| 25 | 0.8% | Cc1ccc(S(=O)(=O)N2CCOCC2)cc1NC(=O)COC(=O)CNC(=O)c1ccc(Oc2ccccc2)cc1 |
| 26 | -1.3% | c1ccc(CSCc2cn3ccccc3n2)cc1 |
| 27 | -6.8% | O=S(=O)(Nc1ccc(C(F)(F)F)cn1)c1ccccc1 |
| 28 | -17.4% | CCn1c(SCC(=O)N2CCc3ccccc32)nnc1-c1ccncc1 |
| 29 | -7.5% | CSc1nc(-c2ccccc2)nc(C(C)C)n1 |
| 30 | 11.2% | Cc1cc(Oc2ccc(=O)n(C)n2)nc(Oc2ccc(=O)n(C)n2)n1 |
| 31 | ? | COC(=O)c1c(-c2cccs2)csc1NC(=O)c1ccc(C)cc1 |
| 32 | 2.8% | Cc1cc(C)nc(SCC(=O)NN=Cc2ccc(C)o2)n1 |
| 33 | 7.94µM* | O=C(c1nnsc1S(=O)c1ccc(Cl)cc1)N1CCOCC1 (stereo not given) |
| 34 | -17.0% | O=C(Cn1cc(/C=N/NC(=O)c2cccc3ccccc23)c2ccccc21)Nc1ccc(F)cc1 |
| 35 | 15.4% | COc1cccc(CC2(CO)CCN(Cc3ccc(NC(C)=O)cc3)CC2)c1 |
| 36 | -20.5% | CC(C)c1nnc(SCC(=O)N2CCc3ccccc32)n1C |
| 37 | -2.5% | Cc1ccccc1OCCC(=O)Nc1c(C)n(C)n(-c2ccccc2)c1=O |
| 38 | -9.4% | Cc1nn2c(-c3ccc(Cl)cc3Cl)nnc2s1 |
| 39 | 5.0% | Cc1ccc(N2CCN(C(=O)c3cnc(N4CCCCC4)c4ccccc34)CC2)c(C)c1 |
| 40 | -4.6% | Cc1ccc(CS(=O)Cc2ccc(C(=O)NCc3cccs3)o2)cc1 (stereo not given) |
| 41 | -0.6% | COc1ccc(/C=C2\CN(Cc3ccccc3)C/C(=C\c3ccc(OC)cc3OC)C2=O)c(OC)c1 |
| 42 | -9.4% | c1cncc(-c2nc(N3CCOCC3)c3ccccc3n2)c1 |
| 43 | 0.6% | COc1ccc(N2CC(NC(=O)C(c3ccccc3)c3ccccc3)CC2=O)cc1OC (stereo not given) |
| 44 | -18.5% | O=c1[nH]c2cc3c(cc2cc1CN(CCO)S(=O)(=O)c1ccccc1)OCCO3 |
| 45 | -8.9% | O=C(CCNC(=O)c1ccc([N+](=O)[O-])cc1)NCCc1ccc(Cl)cc1 |
| 46 | 1.5% | CC(Cc1ccccc1)C(=O)N(C)Cc1cccnc1 (stereo not given) |
| 47 | -5.3% | CC(C)(C)NC(=O)CN(C(=O)CNC(=O)c1cccs1)c1ccc2c(c1)OCCO2 |
| 48 | -9.7% | Cc1nc(SCc2ccccc2)[nH]c(=O)c1CC(=O)OCC(C)C |
| 49 | -7.3% | Cc1ccc(NC(=O)CNc2cccc(S(=O)(=O)N3CCOCC3)c2)cc1F |
| 50 | -19.7% | COc1cc(NC(=O)CSc2nc3cc(C)ccc3cc2C)c(C(=O)O)cc1OC |
| 51 | -14.7% | CN(C)c1nn(C(=O)Nc2ccc(Cl)cc2Cl)cc1-c1ccccc1 |
| 52 | -7.3% | CCc1ccc2c(c1)NC(c1ccc(OC)cc1)=NC(c1ccncc1)=N2 |
| 53 | -16.7% | CCC(=O)Nc1nc(NCc2ccccc2OC)n(-c2ccccc2)n1 |
| 54 | 5.0% | COC(=O)c1ccccc1NC(=O)c1ccc(COc2ccccc2)o1 |
| 55 | -10.2% | O=C(Nc1c2c(nn1-c1ccc(F)cc1)CS(=O)(=O)C2)c1ccc2c(c1)OCO2 |
| 56 | 2.6% | O=C(c1cccs1)N1CCCC(c2nc(-c3ccc(F)cc3)no2)C1 (stereo not given) |
| 57 | 3.6% | CCOC(=O)C1CCCCN1C(=O)CCc1c(C)nc2ncnn2c1C (stereo not given) |
| 58 | 8.2% | CC(C)(C)NC(=O)CCN(/N=C/c1ccc([N+](=O)[O-])o1)C1=NS(=O)(=O)c2ccccc21 |
| 59 | -10.4% | COc1ccc(-c2cc(C(F)(F)F)nc(N3CCN(c4ccc(F)cc4)CC3)n2)cc1OC |
| 60 | -10.4% | Cc1c(N=C2SCC(=O)N2/N=C/c2ccccc2)c(=O)n(-c2ccccc2)n1C |

Carrying on.
| entry | VDR inh | canonical_smiles |
| --- | --- | --- |
| 61 | 2.8% | OC(CN1C2=NCCN2c2ccccc21)c1ccc(Br)cc1 (stereo not given) |
| 62 | 8.7% | Cc1cccc(NC(=O)CSc2nc(C)nc3c2c(=O)n(C)c(=O)n3C)c1 |
| 63 | 16.3% | CC(C)C(C)(C#N)NC(=O)CSc1nnc(-c2ccccc2)o1 (stereo not given) |
| 64 | -11.1% | C=CCN1C(=O)C2C(C(=O)NCc3ccccc3)C3C=CC2(O3)C1C(=O)NC(C)(C)C (stereo not given) |
| 65 | 0.5% | C=CC[C@@H](CC(=O)NCCO)C(=O)NC[C@H](OC(=O)[C@@H](CC=C)Cc1ccc(F)cc1)c1ccccc1 |
| 66 | -2.0% | CCn1cc(S(=O)(=O)CC(=O)Nc2ccc(OC)cc2)c2ccccc21 |
| 67 | -3.8% | O=C(CN1CCCC1)Nc1ccc(Cl)cc1C(F)(F)F |
| 68 | -13.8% | CC(=O)N1c2ccccc2Sc2ccccc21 |
| 69 | -3.7% | CS(=O)(=O)N1CCCC(C(=O)NCc2ccccc2Cl)C1 (stereo not given) |

From compound 52 to 69, copied from above:
| entry | VDR inh | canonical_smiles |
| --- | --- | --- |
| 52 | -7.3% | CCc1ccc2c(c1)NC(c1ccc(OC)cc1)=NC(c1ccncc1)=N2 |
| 53 | -16.7% | CCC(=O)Nc1nc(NCc2ccccc2OC)n(-c2ccccc2)n1 |
| 54 | 5.0% | COC(=O)c1ccccc1NC(=O)c1ccc(COc2ccccc2)o1 |
| 55 | -10.2% | O=C(Nc1c2c(nn1-c1ccc(F)cc1)CS(=O)(=O)C2)c1ccc2c(c1)OCO2 |
| 56 | 2.6% | O=C(c1cccs1)N1CCCC(c2nc(-c3ccc(F)cc3)no2)C1 (stereo not given) |
| 57 | 3.6% | CCOC(=O)C1CCCCN1C(=O)CCc1c(C)nc2ncnn2c1C (stereo not given) |
| 58 | 8.2% | CC(C)(C)NC(=O)CCN(/N=C/c1ccc([N+](=O)[O-])o1)C1=NS(=O)(=O)c2ccccc21 |
| 59 | -10.4% | COc1ccc(-c2cc(C(F)(F)F)nc(N3CCN(c4ccc(F)cc4)CC3)n2)cc1OC |
| 60 | -10.4% | Cc1c(N=C2SCC(=O)N2/N=C/c2ccccc2)c(=O)n(-c2ccccc2)n1C |
| 61 | 2.8% | OC(CN1C2=NCCN2c2ccccc21)c1ccc(Br)cc1 (stereo not given) |
| 62 | 8.7% | Cc1cccc(NC(=O)CSc2nc(C)nc3c2c(=O)n(C)c(=O)n3C)c1 |
| 63 | 16.3% | CC(C)C(C)(C#N)NC(=O)CSc1nnc(-c2ccccc2)o1 (stereo not given) |
| 64 | -11.1% | C=CCN1C(=O)C2C(C(=O)NCc3ccccc3)C3C=CC2(O3)C1C(=O)NC(C)(C)C (stereo not given) |
| 65 | 0.5% | C=CC[C@@H](CC(=O)NCCO)C(=O)NC[C@H](OC(=O)[C@@H](CC=C)Cc1ccc(F)cc1)c1ccccc1 |
| 66 | -2.0% | CCn1cc(S(=O)(=O)CC(=O)Nc2ccc(OC)cc2)c2ccccc21 |
| 67 | -3.8% | O=C(CN1CCCC1)Nc1ccc(Cl)cc1C(F)(F)F |
| 68 | -13.8% | CC(=O)N1c2ccccc2Sc2ccccc21 |
| 69 | -3.7% | CS(=O)(=O)N1CCCC(C(=O)NCc2ccccc2Cl)C1 (stereo not given) |

Source: PubChem BioAssay
